MITF inh: inhibitors of MITF; inhibition, % (test concentration not listed); AID 2240; TRPM1 promoter luciferase, luminescence, 24 h; 37,000 compounds, 0.28% hits;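 active = most replicates at 85% or more, or half of them and the mean; inconclusive = half reach 85% but not the mean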;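 also: human melanocyte line stably carrying TRPM1 promoter luciferase reporter; 0% = vehicle wells and 100% = a positive control; the first replicate is given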
Hedgehog inh: Sonic Hedgehog pathway inhibition. Shh-LIGHT2 Gli-luciferase reporter, 30 h. inhibition, % (concentration not given with the values). 22,000 compounds, 2.1% hits;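 active = replicate mean of 65% or more; inconclusive = mean lower but half the replicates past it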;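 also: pathway switched on by Shh-conditioned medium diluted 1 in 25 in low serum; 100 nL library stock added to about 40 µL; 0% = median of neutral wells and 100% = positive control level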
PD-1 reverse act: activators reversing PD-1 mediated T-cell inhibition. 29,000 tested, under 10 active. activation, % (test concentration not listed). primary human CD4 T cells, PD-L1 beads, CellTiter-Glo 96 h. AID 2316;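 active = replicate mean of 50% or more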;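 also: 0% = median vehicle wells and 100% = positive control; 100 nL library stock added to about 50 µL; numbers are from one replicate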
YB-1 expr inh: YB-1 expression inhibition; U2OS, qRT-PCR YB-1 vs CDIP delta delta Cp, 16 h; active compounds read high; zero = DMSO, each unit about twofold; delta delta Cp (YB-1 minus CDIP) (test concentration not listed); 30,000 compounds, 0.37% hits; AID 434959;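 active = delta delta Cp rounded down to an integer at or above 3, about 3 SD of DMSO wells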;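 also: higher means less YB-1 transcript or more CDIP transcript relative to DMSO; stock transfer was 100 nL into about 100 µL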
Active calls of the source: *; ? = inconclusive; nt = not tested or not shown. An excerpt; count on the stated rates, not on these rows.

SMILES | MITF inh | Hedgehog inh | PD-1 reverse act | YB-1 expr inh
C[C@@H]1CN([C@@H](C)CO)C(=O)c2cc(NC(=O)Nc3cccc4ccccc34)ccc2O[C@@H]1CN(C)Cc1ccc2c(c1)OCO2 | 2.1 | 28.8 | -1.6 | 0.244
O=C(COc1ccc(Cl)cc1)NCc1n[nH]c(=S)n1-c1cccc(Cl)c1 | -17.7 | nt | 1.2 | 0.295
C[C@@H]1CN([C@H](C)CO)C(=O)c2cccc(NC(=O)Nc3ccccc3)c2O[C@@H]1CN(C)S(=O)(=O)c1cn(C)cn1 | -6.5 | ? | nt | 0.217
C[C@@H]1CN([C@H](C)CO)C(=O)c2cccc(NC(=O)Nc3ccc(F)cc3)c2O[C@H]1CN(C)Cc1ccc(Cl)c(Cl)c1 | 26.8 | -25.9 | -3.1 | -0.0781
C[C@@H]1CCCCO[C@H](CN(C)Cc2ccccc2)[C@@H](C)CN([C@H](C)CO)C(=O)c2cc(NC(=O)NC3CCCCC3)ccc2O1 | -16.2 | 15.9 | nt | -0.413
CCc1cc(Br)cc(C)c1NC(=O)CSc1nnc(-c2ccc(Cl)cc2)n1C | 8.0 | nt | 1.4 | nt
C[C@@H]1CCCCO[C@H](CN(C)Cc2ccc3c(c2)OCO3)[C@@H](C)CN([C@H](C)CO)C(=O)c2cc(NS(C)(=O)=O)ccc2O1 | -8.8 | nt | nt | -0.169
C[C@H](CO)N1C[C@H](C)[C@H](CN(C)C(=O)Nc2ccccc2)Oc2c(NC(=O)c3ccc(-c4nccs4)cc3)cccc2C1=O | -1.4 | -13.6 | 0.1 | 0.502
C[C@@H]1CN([C@H](C)CO)C(=O)c2cc(NC(=O)CCCCCC(=O)Nc3ccccc3N)ccc2O[C@@H]1CN(C)S(=O)(=O)c1ccc(F)cc1 | 5.8 | nt | 0.2 | -0.161
Cc1ccc(S(=O)(=O)NC(C)C(=O)Nc2ccc(Oc3ccccc3)cc2)cc1 (stereo unspecified) | 37.1 | nt | -0.6 | nt
C[C@@H]1CN([C@H](C)CO)C(=O)Cc2cc(NC(=O)Nc3ccc(F)cc3)ccc2O[C@H]1CN(C)C(=O)Nc1ccc(C(F)(F)F)cc1 | 7.9 | 21.4 | nt | -0.342
COc1ccc(S(=O)(=O)Nc2ccc3c(c2)CC(=O)N([C@H](C)CO)C[C@@H](C)[C@@H](CN(C)C(=O)Nc2ccccc2)O3)cc1 | -17.8 | -10.0 | 0.9 | -0.193
COc1ccc(S(=O)(=O)Nc2ccc3c(c2)CC(=O)N([C@@H](C)CO)C[C@@H](C)[C@@H](CN(C)S(=O)(=O)c2cn(C)cn2)O3)cc1 | -5.9 | -40.4 | 3.8 | -0.262
CCc1cccc(C)c1NC(=O)CN(C)S(=O)(=O)c1ccc(Cl)cc1 | 9.2 | nt | 2.6 | nt
COc1ccc(NC(=O)N(C)C[C@H]2OCCCC[C@@H](C)Oc3ccc(NC(=O)Nc4ccc(F)cc4)cc3C(=O)N([C@H](C)CO)C[C@@H]2C)cc1 | -16.7 | 22.0 | 0.3 | 0.305
C[C@H](CO)N1C[C@H](C)[C@H](CN(C)CC2CCCCC2)Oc2ccc(NC(=O)C3CCCCC3)cc2CC1=O | -4.4 | 18.2 | -0.8 | 0.323
CCCCc1cc2ccccc2c(OCCN(C)C)n1 | -20.5 | 4.7 | nt | 0.452
COc1ccc([N+](=O)[O-])cc1NC(=O)CN(c1ccc(F)cc1)S(C)(=O)=O | -4.1 | nt | 1.1 | nt
Cc1ccc(S(=O)(=O)N(C)C[C@@H]2Oc3c(NC(=O)C4CCOCC4)cccc3C(=O)N([C@H](C)CO)C[C@@H]2C)cc1 | -4.0 | -64.6 | 0.9 | -0.356
CC1=C(C(=O)OC(C)C)C(c2ccccc2)NC(=S)N1 (stereo unspecified) | 17.9 | nt | -4.5 | -1.18
Cc1cccc(N(CC(=O)Nc2c(C)n(C)n(-c3ccccc3)c2=O)S(C)(=O)=O)c1 | -7.0 | nt | -0.1 | nt
C[C@@H]1CN([C@H](C)CO)C(=O)c2cccc(NC(=O)Nc3ccc(C(F)(F)F)cc3)c2O[C@H]1CN(C)S(=O)(=O)c1ccccc1 | 8.2 | 18.2 | nt | -0.199
C[C@H]1CN([C@@H](C)CO)C(=O)c2cccc(NC(=O)c3nc4ccccc4s3)c2O[C@@H]1CN(C)C(=O)NC1CCCCC1 | -0.1 | 11.2 | -1.4 | -0.399
CSc1ccccc1NC(=O)c1cnn2c(C(F)(F)F)cc(-c3ccco3)nc12 | -9.8 | ? | -1.8 | -0.715
C[C@@H]1CN([C@H](C)CO)C(=O)Cc2cc(NC(=O)Cc3cn(C)c4ccccc34)ccc2O[C@@H]1CN(C)C(=O)Nc1cccc2ccccc12 | 13.4 | nt | nt | -0.209
The listing continues.
SMILES | MITF inh | Hedgehog inh | PD-1 reverse act | YB-1 expr inh
O=S(=O)(Cc1cccc(C(F)(F)F)c1)Cc1cccc(C(F)(F)F)c1 | -1.8 | 1.7 | -2.9 | 0.0588
COc1ccc2c3c1O[C@H]1C[C@@H](O)C=C[C@@]31CCN(C)C2 | 9.4 | -6.6 | 1.4 | -0.0908
Cc1noc(C)c1NC(=O)Nc1ccc2c(c1)C(=O)N([C@H](C)CO)C[C@H](C)[C@H](CN(C)C(=O)Nc1ccc3c(c1)OCO3)OCCCC[C@@H](C)O2 | -3.6 | nt | 0.0 | -0.536
C[C@@H]1CN([C@@H](C)CO)C(=O)c2cccc(NC(=O)Nc3ccc4c(c3)OCO4)c2O[C@H]1CN(C)Cc1ccc(C(F)(F)F)cc1 | 50.1 | -26.5 | -6.0 | 0.177
O=C(COc1ccc(Br)cc1)Nc1ccc(Cl)c(-c2nc3ncccc3o2)c1 | -32.4 | nt | 0.3 | nt
C[C@@H]1CN([C@H](C)CO)C(=O)c2cc(NC(=O)Cn3cnnn3)ccc2O[C@@H]1CN(C)S(=O)(=O)c1ccc(F)cc1 | 11.0 | -2.4 | 0.9 | -0.122
C[C@H](CO)N1C[C@H](C)[C@H](CN(C)Cc2ccncc2)Oc2ccc(NC(=O)Nc3ccc4c(c3)OCO4)cc2CC1=O | -4.4 | -26.9 | 1.8 | -0.31
C[C@H]1CN([C@@H](C)CO)C(=O)Cc2cc(NC(=O)CCN3CCOCC3)ccc2O[C@H]1CN(C)CC1CCCCC1 | -9.2 | -42.0 | nt | -0.246
CC(=O)c1cccc(NC(=O)CSc2nccc(C)n2)c1 | -33.0 | nt | 0.8 | nt
CC(C)(C(=O)O)c1ccc(C(O)CCCN2CCC(C(O)(c3ccccc3)c3ccccc3)CC2)cc1 (stereo unspecified) | -1.6 | -8.1 | nt | 0.145
COc1ccc(C(NC(C)=O)c2c(O)ccc3ccccc23)cc1OC (stereo unspecified) | 6.6 | nt | 1.2 | nt
C[C@@H]1CN([C@H](C)CO)C(=O)c2cc(NC(=O)Nc3cccc4ccccc34)ccc2O[C@H]1CN(C)S(=O)(=O)c1cn(C)cn1 | -6.7 | nt | 2.0 | -0.473
CCCCc1ccc(NC(=O)N=S2CCN(C(=O)c3ccc(Cl)cc3)CC2)cc1 | 15.1 | 7.5 | -3.2 | -0.281
C[C@@H]1CN([C@H](C)CO)C(=O)c2cccc(NS(=O)(=O)c3ccccc3)c2O[C@H]1CN(C)Cc1ccc(Cl)c(Cl)c1 | -18.2 | 20.9 | 1.3 | 0.0966
C[C@H]1CN([C@@H](C)CO)C(=O)c2cc(NC(=O)CCN3CCOCC3)ccc2O[C@H]1CN(C)S(=O)(=O)c1ccc(Cl)cc1 | -0.7 | -33.1 | -0.5 | 0.276
Cc1ccc(O)c(C2=Nc3ccccc3N=C(C(F)(F)F)C2)c1 | 19.5 | -55.8 | -21.2 | -0.0197
COc1cccc(C(=O)NC(c2ccccc2OC)c2c(O)ccc3ccccc23)c1 (stereo unspecified) | -11.8 | nt | 0.7 | nt
C[C@@H]1CN([C@H](C)CO)C(=O)c2cc(NC(=O)Cc3ccccc3)ccc2O[C@H]1CN(C)Cc1ccc(Cl)c(Cl)c1 | -1.4 | -31.7 | -0.7 | -0.0678
Nc1cccc(-c2nc3ccccc3o2)c1 | 32.0 | -144.7 | -0.2 | 0.0296
C[C@@H]1CN([C@H](C)CO)C(=O)c2cc(NC(=O)NC3CCCCC3)ccc2O[C@H]1CN(C)Cc1ccncc1 | -7.3 | nt | 0.4 | -0.191
C[C@H]1CN([C@@H](C)CO)C(=O)Cc2cc(NC(=O)Nc3ccccc3)ccc2O[C@@H]1CN(C)Cc1ccc(C(F)(F)F)cc1 | -12.8 | -24.8 | 0.7 | -0.000628
C[C@@H]1CN([C@H](C)CO)C(=O)c2cc(NC(=O)C3CC3)ccc2O[C@@H]1CN(C)S(=O)(=O)c1ccc(F)cc1 | -13.1 | nt | 0.4 | -0.0942
COc1ccc(S(=O)(=O)Nc2ccc3c(c2)C(=O)N([C@@H](C)CO)C[C@H](C)[C@@H](CN(C)Cc2ccc4c(c2)OCO4)O3)cc1 | 6.3 | nt | -0.3 | -0.0155
CC(=O)c1ccc(O)c(CC=C(C)C)c1 | -3.1 | 6.9 | nt | 0.301
CC1(C)CCC[C@]2(C)C1CC=C(CO)[C@H]2CC/C(=C/CO)CO (stereo partly specified) | nt | -15.3 | nt | 0.452

Arranged by formula weight (low to high): three of the compounds above
SMILES | MITF inh | Hedgehog inh | PD-1 reverse act | YB-1 expr inh
CCCCc1ccc(NC(=O)N=S2CCN(C(=O)c3ccc(Cl)cc3)CC2)cc1 | 15.1 | 7.5 | -3.2 | -0.281
C[C@@H]1CN([C@H](C)CO)C(=O)c2cc(NC(=O)C3CC3)ccc2O[C@@H]1CN(C)S(=O)(=O)c1ccc(F)cc1 | -13.1 | nt | 0.4 | -0.0942
C[C@@H]1CN([C@H](C)CO)C(=O)c2cc(NC(=O)Cn3cnnn3)ccc2O[C@@H]1CN(C)S(=O)(=O)c1ccc(F)cc1 | 11.0 | -2.4 | 0.9 | -0.122

The list continues.
SMILES | MITF inh | Hedgehog inh | PD-1 reverse act | YB-1 expr inh
Cc1noc(C)c1NC(=O)N(C)C[C@H]1Oc2ccc(NC(=O)C3CCCCC3)cc2C(=O)N([C@@H](C)CO)C[C@@H]1C | -11.9 | -0.6 | -3.8 | 0.201
COC(=O)c1ccsc1NC(=O)c1ccsc1NC(=O)c1cccnc1 | -19.1 | nt | 1.2 | nt
C[C@@H]1CN([C@H](C)CO)C(=O)c2cccc(NS(=O)(=O)c3ccccc3)c2O[C@H]1CN(C)C(=O)Nc1cccc2ccccc12 | 6.2 | 14.3 | nt | 0.465
C[C@@H]1CCCCO[C@H](CN(C)S(C)(=O)=O)[C@@H](C)CN([C@H](C)CO)C(=O)c2cc(NC(=O)c3ccccc3)ccc2O1 | -5.1 | 19.7 | 1.1 | 0.0235
CCOc1ccc2sc(C=NC(C)CC)c(O)c2c1 (stereo unspecified) | -81.2 | -56.1 | 0.4 | -0.175
CC(=O)OC1CCC2C3CCc4cc(O)ccc4C3CCC12C (stereo unspecified) | 11.8 | ? | nt | 0.0216
Cc1ccc(Cl)cc1NC(=O)CSc1nnc(-c2cccs2)n1C | -10.2 | nt | -0.1 | nt
C[C@@H]1CN([C@@H](C)CO)C(=O)c2cc(NC(=O)CCC(F)(F)F)ccc2O[C@@H]1CN(C)Cc1ccncc1 | 2.4 | nt | nt | -0.0669
COc1ccc(NC(=O)N(C)C[C@H]2Oc3c(NC(=O)Nc4ccc5c(c4)OCO5)cccc3C(=O)N([C@@H](C)CO)C[C@H]2C)cc1 | -2.8 | -22.6 | nt | 0.24
COc1ccc(S(=O)(=O)N(C)CC(=O)Nc2cc(Cl)c(Cl)cc2Cl)cc1 | -7.2 | nt | -0.2 | nt
Cc1ccc(S(=O)(=O)Nc2ccc3c(c2)C(=O)N([C@@H](C)CO)C[C@@H](C)[C@H](CN(C)CC2CCCCC2)O3)cc1 | -6.1 | 1.4 | nt | -0.0517
C[C@@H]1CCCCO[C@@H](CN(C)S(=O)(=O)c2cn(C)cn2)[C@@H](C)CN([C@H](C)CO)C(=O)c2cc(N(C)C)ccc2O1 | -4.1 | -15.5 | 1.5 | -0.0586
C[C@@H]1CN([C@H](C)CO)C(=O)c2cc(NS(C)(=O)=O)ccc2O[C@H]1CN(C)C(=O)Nc1ccc(C(F)(F)F)cc1 | 0.8 | -22.7 | 1.0 | -0.154
C[C@@H]1CN([C@@H](C)CO)C(=O)c2cccc(NS(=O)(=O)c3ccccc3)c2O[C@@H]1CN(C)C(=O)Nc1ccccc1 | 0.9 | 12.9 | nt | 0.581
COc1ccc(CN(C)C[C@@H]2Oc3ccc(NC(=O)Nc4ccc(F)cc4)cc3CC(=O)N([C@H](C)CO)C[C@@H]2C)cc1 | -35.3 | -3.7 | nt | -0.222
CNC[C@@H]1OCCCC[C@@H](C)Oc2ccc(NC(=O)CCC(F)(F)F)cc2C(=O)N([C@H](C)CO)C[C@@H]1C | 1.2 | 6.1 | 0.9 | 0.053

Entries listed so far that have bromine (2):
SMILES | MITF inh | Hedgehog inh | PD-1 reverse act | YB-1 expr inh
CCc1cc(Br)cc(C)c1NC(=O)CSc1nnc(-c2ccc(Cl)cc2)n1C | 8.0 | nt | 1.4 | nt
O=C(COc1ccc(Br)cc1)Nc1ccc(Cl)c(-c2nc3ncccc3o2)c1 | -32.4 | nt | 0.3 | nt

Compound activity deposited in PubChem by Broad Institute.
